Source: PubChem
miR-21 FLuc = miR-21 reporter, rising signal; HeLa miR-21 FLuc reporter, luciferase, 48 h; Potency, µM (highest dose often 38.3 µM), without a hit: at the top dose reporter change, positive = more light; 340,000 tested, under 10 active; AID 2288; active = well fitted rising curve with a large enough effect; inconclusive = small, poorly fitted or top-dose-only effect; inactive = no such curve, though single readings can be large or run the other way;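 further: % of control where 0% means no effect; miR-21 action dims this reporter so a rising signal means less miR-21 action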
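HeLa cells endogenously expressing miR-21, stably carrying CMV-driven firefly luciferase with a downstream miR-21 binding site, 2000 cells/well. Titrations up to approximately 40 uM, 48 hours; luciferase luminescence read.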
GLA inh pH 4.5 = blocks human alpha-galactosidase A at pH 4.5 | P06280 | purified enzyme, 4-MU-alpha-Gal fluorescence, pH 4.5 | activity change, negative = inhibition, % at 105 µM | 230,000 tested, under 10 active | AID 1467; inconclusive = small, poorly fitted or top-dose-only inhibition, or a rising curve; inactive = flat fitted curve, though single readings scatter; no compound was filed as active;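 further: 0% = full activity with enzyme and -100% = basal without enzyme; dose as in the result columns while the protocol names 77 µM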
Target sequence (P06280 whole entry, looked up): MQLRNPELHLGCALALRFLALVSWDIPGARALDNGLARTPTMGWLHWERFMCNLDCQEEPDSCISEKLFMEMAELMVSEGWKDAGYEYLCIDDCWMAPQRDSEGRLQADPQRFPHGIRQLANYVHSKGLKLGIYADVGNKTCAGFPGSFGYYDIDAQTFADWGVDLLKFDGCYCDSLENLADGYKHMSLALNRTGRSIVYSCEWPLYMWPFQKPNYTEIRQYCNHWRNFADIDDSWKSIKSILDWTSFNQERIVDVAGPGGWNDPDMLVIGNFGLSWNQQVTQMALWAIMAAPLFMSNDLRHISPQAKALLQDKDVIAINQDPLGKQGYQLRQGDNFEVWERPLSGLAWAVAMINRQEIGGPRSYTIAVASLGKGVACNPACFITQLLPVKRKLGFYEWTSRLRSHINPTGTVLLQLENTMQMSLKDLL
Rango dissoc inh = prevents RanGTP from dissociating the Rango-importin beta complex | O95149+P62826 | Biochemical FRET Rango-importin beta, RanGTP-induced dissociation | Potency, µM (top dose mostly 46.1 µM), inactives show at the highest dose activity change, negative = inhibition | 340,000 tested, 0.071% active; active means falling FRET ratio curve, often poorly fitted, with flat reads before Ran was added; inconclusive means other falling curves, or compound fluorescence or quenching; inactive means flat or rising ratio curve;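 further: potency means the concentration at half of the fitted maximal effect; % of control where 0% means no effect; nearly all actives have a fitted effect of over 45% in size; -100% = wells without RanGTP and RCC1; the record marks most hits as doubtful in a second field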
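Compounds preincubate 5 min with complex of recombinant Rango and importin beta in PBS with 1 mM DTT. Ran (0.6 uM) loaded with 2 mM GTP plus 0.2 uM RCC1 starts dissociation; FRET is recorded 45 min later.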
Rango complex inh = prevents formation of the Rango-importin beta complex. Q14974. Potency, µM (doses to about 92.2 µM), inactives show at the highest dose inhibition of complex formation. AID 540263. 340,000 tested, 0.031% active. Rango CFP/YFP FRET sensor + importin beta, 45 min; active = rising FRET ratio curve, often small or poorly fitted; inconclusive = mostly compound fluorescence or quenching in the first reads; inactive = flat curves in all reads;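 further: potency means the concentration at half of the fitted maximal effect; 0% = DMSO wells and 100% = buffer wells lacking importin beta; nearly all actives have a fitted effect of over 15% in size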
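FRET biosensor (snurportin 1 IBB flanked by EYFP and cerulean), 50 nM, with compound 5 min, then 0.125 microM importin beta in PBS, 1 mM DTT, 0.02% Tween-20, 0.1% BSA. CFP/YFP ratio read after 45 min at room temperature; pre-read flags interference.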
* hit, by the source's call; ? = inconclusive; . = no result given; & = joins results of further samples. Some of the compounds tested, so the mix of outcomes need not match the whole.

Short forms – A = miR-21 FLuc; B = GLA inh pH 4.5; C = Rango dissoc inh; D = Rango complex inh
CCOC(=O)/C(=N/Nc1ccc(Cl)cc1)Sc1nnnn1-c1ccc(C)cc1
  A = 2% | B = 3 | C = -2% | D = -0.4%

CCOc1cc(NC(=S)NCC2CCCO2)c(OCC)cc1NC(=O)c1ccc(C)cc1 (stereo unspecified)
  A = -8% | B = 6 | C = -5% | D = -1.8%

COC(=O)/C(=C\c1ccc2c(c1)c1ccccc1n2C)NC(=O)c1ccccc1
  A = 8% | B = 2 | C = -12% | D = ?

COc1ccc(CCNC(=O)C(=O)NCC2OCCN2S(=O)(=O)c2ccccc2)cc1 (stereo unspecified)
  A = 6% | B = . | C = -1% | D = -2.9%

CC1c2nc3ccccc3n2C(CC(=O)NCCCN2CCOCC2)C(=O)N1Cc1ccccc1 (stereo unspecified)
  A = 1% | B = 3 | C = 11% | D = 0.8%

Cn1c(CCc2ccccc2)n[nH]c1=S
  A = -2% | B = -1 | C = -7% | D = 0.2%

COc1ccccc1CNC(=O)COC(=O)c1ccncc1
  A = . | B = . | C = 0% | D = -0.6%

COc1cccc(C(=O)NOCc2ccccc2)c1OC
  A = . | B = . | C = -29% | D = -4.2%

Cc1nn(CC(=O)Nc2ccc3c(c2)nc(CCN2CCCCC2)n3C)c(=O)c2ccccc12
  A = 7% | B = -5 | C = -15% | D = 6.8%

Cn1cc(Cl)c(C(=O)Nc2nc3ccc(Cl)cc3s2)n1
  A = -43% | B = 2 | C = 1% | D = 0.2%

CCOc1ccc2c(c1)/C(=N/N1C(=O)c3ccccc3C1=O)C(=O)N2
  A = -1% | B = -5 | C = -27% | D = -0.7%

Cc1ccc(C(C)C)c(OCCSc2nc3ccccc3n2CC(=O)O)c1
  A = -2% | B = . | C = 9% | D = -2.7%

CC(CCc1ccccc1)NCc1ccncc1 (stereo unspecified)
  A = -10% | B = -6 | C = 1% | D = 0.6%

Cc1ccccc1NS(=O)(=O)c1ccc2oc(=O)ccc2c1
  A = -7% | B = . | C = 2% | D = 3.9%

COc1ccc2c(=O)c(N3C(=O)c4ccccc4C3=O)c(C)oc2c1
  A = 0% | B = 3 | C = -4% | D = 1.7%

CSc1nnc2c(n1)OC(C1CC=C(C)CC1)Nc1ccccc1-2 (stereo unspecified)
  A = -1% | B = 7 | C = . | D = .

COc1ccc(NC(=O)c2nc(-n3nc(C)cc3C)ccc2Cl)cc1Cl
  A = -11% | B = 7 | C = 28% | D = -2.3%

Cc1ccccc1NC(=O)CN1CCN(C(=O)c2ccco2)CC1
  A = -2% | B = . | C = -18% | D = 1.7%

Cc1ccc(C)c(CSC2=NN3CCCC(=O)N=C3S2)c1
  A = -4% | B = -8 | C = 0% | D = -1.0%

CCCCn1cnc2c(oc3ccccc32)c1=O
  A = -61% | B = . | C = 12% | D = -1.1%

CCOC(=O)CC1CCCCN1C(=O)c1ccc2oc(CCc3ccccc3)nc2c1 (stereo unspecified)
  A = 0% | B = . | C = 9% | D = 2.6%

Cc1ccc2nc(NCCc3ccccc3)c3nncn3c2c1
  A = -15%&-20% | B = . | C = -8% | D = 0.2%

Cc1nn(C(C)C)c(C)c1CN1CCC(C(=O)Nc2cccc(-c3cccc(F)c3)c2)CC1
  A = 12% | B = . | C = -3% | D = 2.9%

O=C(N/C=C/c1ccco1)NCc1ccccc1
  A = 0% | B = 0 | C = -6% | D = 5.4%

Cc1ccc(N(CC(=O)NC2CCCC2)C(=O)c2c(C)noc2C)cc1C
  A = -2% | B = -12 | C = 10% | D = 3.1%

CCOC(=O)C1CCN(C(=O)c2ccc(CNS(=O)(=O)c3ccc(C)cc3)cc2)CC1
  A = -1% | B = -2 | C = ? | D = -1.3%

Cc1cc(N2CCN(C)CC2)nc2ccc(NC(=S)NCCN3CCc4ccccc4C3)cc12
  A = -5% | B = 3 | C = -17% | D = 0.3%

Cn1c(SCC(=O)NC(C)(C)C)nnc1-c1cnccn1
  A = 1% | B = 6 | C = 3% | D = -2.1%

Cc1ccc(NC(=S)N2CCN(S(C)(=O)=O)CC2)cc1Cl
  A = -4% | B = . | C = 2% | D = -3.6%

COc1c(N2CCN(C(=S)NC3CC4CCC3C4)C(C)C2)c(F)cc2c(=O)c(C(=O)O)cn(C3CC3)c12 (stereo unspecified)
  A = -1% | B = 2 | C = -4% | D = -2.2%

CN(C)CC(NC(=O)c1cccc(S(=O)(=O)Nc2ccc3c(c2)OCO3)c1)c1ccccc1 (stereo unspecified)
  A = . | B = . | C = 18% | D = -0.6%

CC1Cc2ccccc2N1C(=O)COC(=O)c1ccc([N+](=O)[O-])o1 (stereo unspecified)
  A = . | B = . | C = 2% | D = -1.6%

Oc1ccccc1C=Nc1ccccc1-c1nc2ccccc2[nH]1
  A = -32% | B = 11 | C = -27% | D = ?

CCN1C(=O)[C@H]2[C@H]3CN=C(SCc4ccc(OC)cc4)N3[C@@](CC)(C(=O)OC)[C@H]2C1=O
  A = . | B = . | C = 0% | D = 0.0%

COCc1c(C#N)c(NCCc2ccccc2)nc(C)c1[N+](=O)[O-]
  A = -8% | B = 5 | C = ? | D = 0.1%

O=C(OCC(=O)c1c[nH]c2ccccc12)c1cccc(O)c1
  A = -34% | B = 3 | C = ? | D = -1.2%

CNC(=S)N(CCc1c(C)[nH]c2ccc(OC)cc12)Cc1cccnc1
  A = -2% | B = 9 | C = 6% | D = -2.6%

COc1ccc(CCN(C)c2ccc(S(=O)(=O)N3CCCC3)cn2)cc1OC
  A = -6% | B = 4 | C = 6% | D = -2.8%

C=CCOc1ccc(C2N3CC4(CC)CN2CC(CC)(C3)C4=O)cc1 (stereo unspecified)
  A = 1% | B = 3 | C = 4% | D = 0.2%

COc1ccccc1CCC(=O)Oc1ccccc1C#N
  A = 0% | B = . | C = 21% | D = 6.2%

CC(C)OC(=O)c1ccc(NC(=S)NC(=O)c2cncc(Br)c2)cc1
  A = -5% | B = . | C = -10% | D = 5.4%

O=Cc1c(-c2ccc(Cl)cc2)oc2ccc(O)cc12
  A = . | B = . | C = 20% | D = -2.0%

CCOC(=O)c1c2n(c3ccc(OC(C)=O)cc13)CCC2
  A = -3% | B = -3 | C = 3% | D = -1.5%

COc1ccccc1C(=O)COC(=O)C1(C)CC1(Cl)Cl (stereo unspecified)
  A = . | B = . | C = 1% | D = 1.9%

CCOc1ccc(-c2cn(CCC#N)cn2)cc1
  A = -27% | B = 10 | C = -8% | D = 4.1%

Cc1ccc(-c2csc(NC(=O)CSc3nnc4c(n3)[nH]c3ccccc34)n2)cc1
  A = -17% | B = 6 | C = 15% | D = 8.6%

Cc1nn(CC2CC2)c(=O)n1-c1ccc(C(C)C)cc1
  A = -14% | B = 0 | C = 7% | D = 1.4%

COCCCC1CCN(C(=O)C2CCC(=O)N(Cc3ccccc3F)C2)CC1 (stereo unspecified)
  A = -3% | B = . | C = 0% | D = -0.1%

CCCN(CCC)Cc1c(C(=O)OCC)nnn1-c1nonc1N
  A = -1% | B = -3 | C = -1% | D = -0.2%

COc1ccccc1NC(=O)CCCc1nnc2n(C)c(=O)c3sccc3n12
  A = 0%&-9% | B = . | C = 2% | D = 0.2%

Arranged by molecular weight (lowest first): part of the list above
Short forms – A = miR-21 FLuc; B = GLA inh pH 4.5; C = Rango dissoc inh; D = Rango complex inh
Cc1ccc(C)c(CSC2=NN3CCCC(=O)N=C3S2)c1
  A = -4% | B = -8 | C = 0% | D = -1.0%

COCc1c(C#N)c(NCCc2ccccc2)nc(C)c1[N+](=O)[O-]
  A = -8% | B = 5 | C = ? | D = 0.1%

COCCCC1CCN(C(=O)C2CCC(=O)N(Cc3ccccc3F)C2)CC1 (stereo unspecified)
  A = -3% | B = . | C = 0% | D = -0.1%

Returning to the listing, starting five compounds before the break.
Short forms – A = miR-21 FLuc; B = GLA inh pH 4.5; C = Rango dissoc inh; D = Rango complex inh
Cc1ccc(-c2csc(NC(=O)CSc3nnc4c(n3)[nH]c3ccccc34)n2)cc1
  A = -17% | B = 6 | C = 15% | D = 8.6%

Cc1nn(CC2CC2)c(=O)n1-c1ccc(C(C)C)cc1
  A = -14% | B = 0 | C = 7% | D = 1.4%

COCCCC1CCN(C(=O)C2CCC(=O)N(Cc3ccccc3F)C2)CC1 (stereo unspecified)
  A = -3% | B = . | C = 0% | D = -0.1%

CCCN(CCC)Cc1c(C(=O)OCC)nnn1-c1nonc1N
  A = -1% | B = -3 | C = -1% | D = -0.2%

COc1ccccc1NC(=O)CCCc1nnc2n(C)c(=O)c3sccc3n12
  A = 0%&-9% | B = . | C = 2% | D = 0.2%

O=C(NCCc1ccc2c(c1)OCO2)C1CCN(S(=O)(=O)c2ccc(Cl)cc2)CC1
  A = -5% | B = -5 | C = -7% | D = -2.5%

O=C(CCCCCn1c(=S)[nH]c2ccccc2c1=O)N1CCOCC1
  A = -8% | B = 11 | C = -6% | D = 0.0%

COc1cccc(CNC(=O)CCCNC(=O)c2ccc(Cl)cc2)c1
  A = -5% | B = . | C = 8% | D = -4.1%

O=C(Nc1cccc([N+](=O)[O-])c1)NC1CCCCCCC1
  A = 1% | B = . | C = -14% | D = 9.3%

CN(Cc1ccc(N(C)C)cc1)C(=O)c1cc2ccccc2o1
  A = -39% | B = . | C = 2% | D = -4.3%

Cc1ccc(/C=C2/Sc3ccccc3N(CC(=O)NCC3CCCO3)C2=O)cc1 (stereo unspecified)
  A = -3% | B = . | C = 1% | D = 4.2%

NC(=O)c1nc(N2CCOCC2)nc(N2CCOCC2)n1
  A = -8% | B = 1 | C = -7% | D = 2.2%

O=C(Nc1ccc2ccccc2c1)c1cnccn1
  A = -57% | B = -5 | C = -15% | D = 1.0%

COc1ccc(CCNC(=O)CCC(=O)n2ncc3cc(C)ccc32)cc1OC
  A = 1% | B = . | C = -1% | D = -0.5%

CCOc1cc(N2CCOCC2)c(OCC)cc1NC(=O)C(C)(C)C
  A = -7% | B = 0 | C = -7% | D = -1.0%

COc1ccc2cc3cc(C(=O)NCCCN4CCOCC4)oc3nc2c1
  A = 0% | B = ? | C = 35% | D = 6.2%

O=C(O)CSc1cc(C(=O)c2cc(F)ccc2O)cn2c(=O)c3c(-c4ccccc4)csc3nc12
  A = 1% | B = -10 | C = ? | D = ?

c1cnc2c(OCc3cn4cccnc4n3)cccc2c1
  A = -31% | B = 7 | C = 18% | D = 0.2%

COc1ccc(/C=N/NC(=O)c2ccc(COCC(F)(F)C(F)F)cc2)cc1
  A = -7% | B = -2 | C = 3% | D = -1.1%

O=C(c1ccco1)N(CCCN1CCOCC1)c1nc(-c2ccc(F)cc2)cs1
  A = 18% | B = -12 | C = 15% | D = -1.2%

O=c1[nH]c(=S)[nH]cc1Oc1ccc(Br)cc1Br
  A = . | B = . | C = ? | D = 2.0%

CCc1ccccc1NC(=O)Nc1cccn(Cc2ccc(F)cc2)c1=O
  A = -15% | B = -2 | C = 0% | D = ?

CC(C)CN1CCN(Cc2cccc3ncccc23)CC1CCO (stereo unspecified)
  A = 0% | B = -2 | C = 4% | D = -2.5%

COc1ccc(-c2cc(C(=O)NC(C)C)no2)cc1
  A = -40% | B = -10 | C = 0% | D = 6.5%

COC(=O)C(NC(=O)c1ccccc1)=C1C=C(C)OC(C)=C1
  A = -5% | B = 4 | C = 1% | D = -0.3%

O=C(c1ccc(=O)[nH]n1)N1CCN(S(=O)(=O)c2cccc(F)c2)CC1
  A = . | B = . | C = -9% | D = 0.8%

Fc1ccc(NC(=S)NNc2ncc(C(F)(F)F)cc2Cl)c(F)c1
  A = ? | B = -3 | C = 4% | D = 1.3%

COc1ccccc1-n1cnc(N)c1C(=O)c1ccccc1
  A = 20% | B = 6 | C = 20% | D = -2.5%

CCOc1ccc(OCc2ccc(C(=O)Nc3cccnc3)cc2)cc1
  A = . | B = . | C = 1% | D = -1.8%

CCc1ccc(N(C)S(=O)(=O)c2ccc3[nH]cc(C(=O)NCCN4CCOCC4)c(=O)c3c2)cc1
  A = -6% | B = -15 | C = -1% | D = -1.0%
